Vif TR-FRET = HIV-1 Vif–A3G interaction blockers – biochemical, TR-FRET, GST-Vif 1-94, biotin-A3G peptide, dose response retest, primary screen (AID 1117319); TR-FRET GST-Vif / biotin-A3G peptide binding; higher % means a stronger effect; test concentration not given here; strong numbers were not always called active; one-dose inhibition, %; IC50 in µM for titrated hits; 260,000 compounds, 0.57% hits;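 active = above the screen mean plus three standard deviations and confirmed in dose response; inconclusive = results disagree or hit not tested in dose response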;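 note: Vif residues 1-94 fused to GST binding biotinylated APOBEC3G peptide 110-148; 0% = full assay without inhibitor and 100% = GST in place of GST-Vif; retest series ran down from 100 µM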
A1 inh = inhibitors of the anti-apoptotic protein A1, read as caspase activation | MEF A1-2A-BIM cells, Caspase-Glo 3/7 luminescence, 3 h; percent of clofoctol response, vehicle zero | AID 2462 | 330,000 compounds, 0.066% hits | caspase activation, % (test concentration not listed);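 active = over half of replicate activation scores above 10%, or exactly half above 10 with the replicate mean above 10; inconclusive = replicate mean below 10 yet half the replicates above 10; inactive = over half of replicates below 10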;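 note: wells of about 30 µL received 50 nL stock; many hits fall short of the cut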
RanGTP-Impb inh = disruptors of Ran-importin-beta complex formation – biochemical, FRET, CFP-Ran, YFP-importin-beta, homogeneous, primary screen; inhibition, % (concentration not given with the values); 300,000 compounds, 1.1% hits; AID 2216; cell-free CFP-Ran/YFP-importin-beta FRET ratio;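 active = most replicates above 15%; inconclusive = exactly half above 15%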;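 note: 0% = DMSO wells and 100% = Ran loaded with GDP instead of GTP; wells of about 40 µL received 100 nL stock; the first replicate is given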
Beta cell apopt = beta cell apoptosis inhibition; INS-1E cytokine-induced death, ATP luminescence, 48 h; percent of positive-control rescue, neutral wells zero; protection from apoptosis, % (test concentration not listed); 300,000 compounds, 0.8% hits; AID 435005;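 active = all replicates at 75% or more, or half of them and the mean; inconclusive = half reach 75% but not the mean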;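 note: 0% = cytokine-treated negative control wells and 100% = positive control rescue; higher means more ATP so stronger rescue from cytokine killing; wells of about 40 µL received 100 nL stock; the first replicate is given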
Calb FLC = C. albicans growth modulation with fluconazole. 300,000 compounds, 0.57% hits. growth inhibition, % (test concentration not listed). C. albicans CaCi-2 (fluconazole-resistant clinical isolate) + fluconazole, Alamar Blue growth, 48 h. AID 1979;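 active = most replicates above 75%; inconclusive = exactly half above 75%; inactive = most below 75%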;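 note: all wells also contain fluconazole at 8 µg/ml as a sub-toxic cotreatment; 0% = median of DMSO wells and 100% = median of geldanamycin control wells; wells of about 8 µL received 7.5 nL stock; the first replicate is given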
T cruzi inh = blocks replication of Trypanosoma cruzi | T. cruzi beta-gal in NIH3T3, luminescence, 90 h | inhibition, % (test concentration not listed) | AID 1885 | 300,000 compounds, 1.4% hits;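 active = mean inhibition across valid replicates above about 55%, limit read from the data; inconclusive = mean below that limit but half or more replicates reach it; inactive = mean below it, under half of replicates reach it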;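 note: signal also drops with host cell toxicity which is not excluded here; 0% = plate median of DMSO wells and 100% = zero luminescence signal; higher percent means less beta-gal luminescence so fewer parasites; stock transfer was 50 nL into about 50 µL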
MLL AF4-AF9 inh = inhibitors of human MLL-AF4/AF9 interaction; P42568; AlphaScreen, biotin-AF4 peptide binding to FLAG-AF9; inhibition, % at 10 µM; 350,000 compounds, 0.47% hits;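 active = every replicate reaching a set inhibition limit, whatever the replicate mean, cut at about 25% in these data; inconclusive = mean inhibition reaches that limit but some replicates miss it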;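 note: 0% = plate neutral control median and 100% = total signal loss; the record names both 10 and 1 µM as test concentration; the first replicate is given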
Target sequence (P42568 whole entry, looked up): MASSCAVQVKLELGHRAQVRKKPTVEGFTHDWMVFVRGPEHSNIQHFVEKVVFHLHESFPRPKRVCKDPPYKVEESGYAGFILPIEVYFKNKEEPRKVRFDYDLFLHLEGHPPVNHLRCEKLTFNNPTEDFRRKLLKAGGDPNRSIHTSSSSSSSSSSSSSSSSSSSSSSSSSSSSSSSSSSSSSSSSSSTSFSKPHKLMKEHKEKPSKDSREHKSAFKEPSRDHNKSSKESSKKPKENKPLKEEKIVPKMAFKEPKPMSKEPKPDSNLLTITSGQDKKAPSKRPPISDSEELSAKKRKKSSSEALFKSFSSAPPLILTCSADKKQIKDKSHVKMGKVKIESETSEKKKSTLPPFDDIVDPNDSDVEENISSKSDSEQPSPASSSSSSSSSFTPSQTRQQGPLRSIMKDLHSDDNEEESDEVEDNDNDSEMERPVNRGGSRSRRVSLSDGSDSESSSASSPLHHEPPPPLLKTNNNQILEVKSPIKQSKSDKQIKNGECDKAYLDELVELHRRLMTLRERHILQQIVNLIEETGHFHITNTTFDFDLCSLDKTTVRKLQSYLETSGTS
rRNA inh HTS = inhibits bacterial ribosomal RNA function over humanized ribosomes | E. coli WT GFP vs humanized-ribosome RFP mutants, fluorescence, 24 h; hits give low values; DMSO median 0, no signal -100 | GFP signal change (wild-type ribosome), % (concentration not given with the values) | 350,000 compounds, 1.6% hits | AID 720706;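 active = significant combined selectivity score with lowered wild-type GFP, culture density cut under 30%, mutant RFP and density less affected; inactive = any of these conditions unmet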; note: one replicate is shown; some compounds called inactive have numbers as strong as hits
rRNA inh HTS OD600 = further read-out of rRNA inh HTS, marked with its call; OD600 change, %; measured here: OD600 growth;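 optical density of the mix in the first replicate; 0 = DMSO median and -100 = no signal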
rRNA inh HTS RFP = recorded beside rRNA inh HTS, whose call it bears; RFP signal change, %; measured here: RFP humanized mutant strains;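 first replicate; 0 = DMSO median and -100 = no signal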
* marks the source's active call; other numbers are inactive results; u = inconclusive; x = not tested or not shown; & = joins results of further samples; ! = repeats disagree.

SMILES	Vif TR-FRET	A1 inh	RanGTP-Impb inh	Beta cell apopt	Calb FLC	T cruzi inh	MLL AF4-AF9 inh	rRNA inh HTS	rRNA inh HTS OD600	rRNA inh HTS RFP
Cc1ccc(C(=O)CSc2nnc(Cn3nnc4ccccc43)n2C)cc1	1%	0.9	-0.3	-2	-2	-11	-2.5	3	7	0.3
CCNC(=S)N1CCN(C(=O)C(Cc2ccccc2)NC(C)=O)CC1 (stereo not given)	x	-0.2	x	-5	-8	-5	0.0	7	3	3.2
Cc1ccc(NC(=O)C2CCCN(S(=O)(=O)c3ccc4[nH]c(=O)ccc4c3)C2)nc1 (stereo not given)	-1%	-0.1	-4.2	-3	-3	-6	-3.5	3	2	-1.1
COc1ccc(N2CCN(CCS(=O)(=O)c3cc(Cl)ccc3Cl)CC2)cc1	x	-0.5	x	2	x	x	15	-22*	-4.8*	0.7*
Cc1nnc2sc(SCc3ccccc3)nn2c1=O	x	-2.1	2.2	-7	37	-40	x	x	x	x
O=C(Cc1ccccc1)Nc1nc(-c2cccs2)cs1	-1%	-1.2	2.4	5	-3	-2	x	x	x	x
CCN=C1SC(C(=O)NCCc2ccccc2)CC(=O)N1CC (stereo not given)	7%	1.3	-6.5	4	-2	-2	x	x	x	x
O=[N+]([O-])c1ccc(-c2ccc(/C=N/c3c(-c4ccco4)nc4ccccn34)o2)c(Cl)c1	u	x	-0.8	x	0	-10	x	x	x	x
CSc1nsc(SCC(=O)Nc2cccc(NC(C)=O)c2)n1	x	0.9	1.2	-2	-1	-7	1.3	-4	-8	0.9
Cc1cc(CNC(=O)CC2C(=O)NCCN2CC(C)(C)C)nn1C (stereo not given)	18%	0.6	-0.4	-1	6	-11	-0.1	8	6	-3.4
C/C(=N\NC(N)=S)C1=CCC2C3CC[C@H]4CC(O)CC[C@]4(C)C3CC[C@]12C (stereo not given in full)	6%	2.0	-0.7	x	-7	60*	0.5	-9	-22	7.6
CCCOc1ccc(C(=O)CCC(=O)NNC(=O)c2cccs2)cc1	6%	-0.4	x	3	x	x	1.9	0	0	-1.5
Cc1ccc(NC(=O)c2c([N+](=O)[O-])c(C(C)(C)C)nn2C)c(C)c1	6%	0.0	-1.4	13	-23	8	3.0	-13	-30	-2.8
Nc1nnc(CC(=O)N/N=C/c2ccc(-c3cccc(C(=O)O)c3)o2)s1	24%	-0.9	-0.4	-6	-4	2	0.0	12	3	-7.3
CCS(=O)(=O)n1nc(-c2cccnc2)nc1NCc1ccc(F)cc1	-2%	1.3	8.8	-4	12	5	-7.8	1	-9	4.1
CCS(=O)(=O)Nc1cccc(C2=NN(C(=O)c3ccco3)C(c3ccco3)C2)c1 (stereo not given)	x	-1.0	0.9	1	5	-19	5.8	-2	-17	6.4
Cc1nnc(Nc2ccc(F)cc2)c2ccccc12	x	1.7	-4.0	-1	2	-3	0.1	0	-2	-2.1
COc1ccc(-c2[nH]ncc2CNC(C)CCn2cccn2)cc1F (stereo not given)	-6%	-0.4	-2.0	-2	-4	-16	-1.5	7	10	0.9
Cc1c(C(=O)N2CCN(CC(=O)Nc3ccccc3Cl)CC2)oc2ccc(Br)cc12	x	-0.1	x	2	x	x	-3.0	-5	-11	4.0
COC(=O)c1ccccc1NC(=O)CSc1nc(O)cc(=O)n1C1CCCC1	30%	-0.4	-2.1	-2	3	8	x	x	x	x
O=C(Nc1ccc(F)cc1F)c1cc(-c2ccco2)nc2ccccc12	x	-0.3	-3.0	0	-15	-3	-3.9	-7	-15	-1.5
CC(C)[C@@H](COc1ccccc1)N1CCN(Cc2ccccc2)CCC1=O	x	-1.1	3.5	x	-35	-9	x	-5	-9	2.8
CCCNC(=O)C(Cc1ccc(OC)cc1)NC(=O)c1ccc(Cl)cc1 (stereo not given)	x	-0.7	x	0	x	x	-8.9	5	-3	-0.9
CCCc1cc(=O)oc2cc(C)cc(OCC(=O)NCCN3CCOCC3)c12	2%	-1.4	-1.0	1	-2	12	-1.8	-2	-7	-1.6
CCOc1cc(-c2noc(N)c2C#N)cc(OCC)c1OCC	-3%	-1.2	-5.9	-11	20	-23	x	x	x	x
Other entries follow:
SMILES	Vif TR-FRET	A1 inh	RanGTP-Impb inh	Beta cell apopt	Calb FLC	T cruzi inh	MLL AF4-AF9 inh	rRNA inh HTS	rRNA inh HTS OD600	rRNA inh HTS RFP
O=[N+]([O-])c1ccccc1N/N=C/c1ccccc1	x	-6.5	1.1	3	4	-8	1.9	3	5	-2.0
Cc1ccccc1NC(=O)CCCCCN1C(=O)[C@@H]2Cc3ccccc3CN2C1=O	x	0.5	0.4	4	2	10	-0.6	-6	-6	1.8
O=C(Nc1ccc(Cl)cc1)Nc1nnc(CSCc2ccccc2)s1	6%	0.5	-1.0	32	-15	10	x	x	x	x
CCCCN(C)C(=S)Nc1ccc(Oc2ccccc2)cc1	u	-0.3	-0.3	2	-12	-4	x	x	x	x
Cc1cc(NC(=O)CN2CCN(c3ccc(O)cc3)CC2)no1	u	0.2	7.2	5	-24	-25	x	x	x	x
O=C(Nc1ccc(S(=O)(=O)N2CCCCC2c2cccnc2)cc1)c1c(F)cccc1F (stereo not given)	-7%	-0.3	2.8	3	-5	24	0.4	-17	-28	-7.1
CCCN1C2CCCC1CC(NC(=O)NC13CC4CC(CC(C4)C1)C3)C2 (stereo not given)	x	0.2	5.1	x	-4	13	4.1	17	9	-0.9
CN(C)C(CNC(=O)c1ccccc1OCc1ccc(Cl)cc1)c1ccco1 (stereo not given)	2%	-0.5	u	2	-5	-2	-1.5	-17	-32	11
COc1ccc2cc3[n+](cc2c1OC)CCc1cc2c(cc1-3)OCO2	-1%	0.5&-1.6	5.2	79*!	71	52	-1.4&-5.1	44	-40	-17
Cn1c(Oc2ccc(F)cc2)c(C=O)c2ccccc21	-3%	1.1	-3.0	-10	23	0	0.0	27	18	3.5
COc1ccccc1N1CCN(C(=O)c2sc3nc(C)nc(N4CCN(c5ccccn5)CC4)c3c2C)CC1	x	0.0	1.0	-3	2	21	9.8	-1	-5	3.0
Cc1nc2ccc(NC(=O)[C@H](C)N3C(=O)C4CC=CCC4C3=O)cc2s1 (stereo not given in full)	x	-0.4	x	-3	x	x	-0.6	-2	6	-2.9
O=Cc1c(OCc2ccccc2)ccc2ccccc12	0%	0.0	-0.4	-4	38	-11	2.4	-37*	-23*	7.7*
CCC(C(=O)NC(C)(C)C)N(C(=O)Cn1nnc(-c2ccccc2F)n1)c1cccc2c1CCCC2 (stereo not given)	0%	0.1	-0.3	-6	-5	45	x	x	x	x
Cc1cc2occ(CC(=O)NC3=NCCS3)c2cc1C(C)C	11%	0.5	0.7	-18	-8	3	x	x	x	x
N#Cc1c(Nc2ccccc2)sc(C(=O)c2ccccc2)c1N	4%	-0.5	1.4	2	26	14	x	x	x	x
COC(=O)c1cc(Br)ccc1-c1ccc(/C=N/n2nnnc2N)o1	0%	0.8	-1.3	x	u	-1	x	x	x	x
CCSc1nc2sc3c(c2c(=O)[nH]1)CC(C)(CC)OC3 (stereo not given)	-1%	1.1	0.7	-3	-23	-8	x	x	x	x
O=C(NN1CC(C(=O)OCc2ccc(Br)cc2)CC1=O)c1ccccc1 (stereo not given)	-4%	-1.2	1.9	-3	-2	-8	-5.5	-11	7	6.2
CCOc1ccccc1N(CC)C(=O)Cn1ncc2c(=O)oc3ccccc3c21	u	-0.4	0.1	-3	4	6	4.0	-16	-10	-0.5
O=C(N/N=C/c1ccc(N2CCOCC2)o1)c1cccc([N+](=O)[O-])c1	x	0.3	-2.1	3	5	2	x	x	x	x
CC1(C)CC(=NOC(=O)c2ccccc2)CC(C)(C)N1O	1%	0.2	1.4	x	-4	-3	2.3	9	7	-1.4
O=C(NCCCn1ccnc1)C(=O)NCC1OCCN1S(=O)(=O)c1ccc(F)cc1 (stereo not given)	2%	0.7	3.5	-1	-2	11	-0.8	0	16	-3.5
O=C(CCn1nnc2ccccc2c1=O)N[C@H](C(=O)O)c1ccccc1	2%	0.5	1.7	x	-26	-5	x	x	x	x
CCOC(=O)c1c(Nc2ccccc2OCCOC)n[nH]c1C	x	u	1.5	x	1	-1	x	-19	-8	-1.0
Next section
SMILES	Vif TR-FRET	A1 inh	RanGTP-Impb inh	Beta cell apopt	Calb FLC	T cruzi inh	MLL AF4-AF9 inh	rRNA inh HTS	rRNA inh HTS OD600	rRNA inh HTS RFP
Cc1ccc(/C=N/N2CCN(c3ccccc3)CC2)cc1	-8%	-2.2	1.6	-3	5	-6	7.0	6	8	-6.2
COCCn1ccc2c(OCC(=O)NCCc3ccccc3)cccc2c1=O	-2%	1.0	0.6	-4	8	-3	2.4	-1	-2	2.2
N#Cc1nc(COc2ccccc2Cl)oc1NCc1ccc(F)cc1	6%	x	-3.5	x	-1	17	-1.0	-15	-13	-3.6
Cc1ccc(S(=O)(=O)CCSc2n[nH]c(=O)n2-c2ccc3c(c2)OCCO3)cc1	x	-0.2	1.1	-6	-3	-6	-1.7	-18	-15	-1.1
CCc1ccc2c(Cl)c(C(=O)N/N=C/c3c[nH]c4ccccc34)sc2c1	3%	-0.3	1.9	x	-3	12	x	x	x	x
O=c1sc2ccccc2c(N2CCCC2)c1[N+](=O)[O-]	5%	-1.8	0.1	-8	-9	-15	-1.1	19	10	2.5
O=C(CNC(=S)N(CCCN1CCOCC1)Cc1cccs1)N1CCCC1	x	0.0	1.0	-2	-5	-3	-1.4	11	10	1.2
CCOC(=O)NC(NCc1ccccc1Cl)(C(F)(F)F)C(F)(F)F	7%	0.9	2.2	-3	2	-14	x	x	x	x

An excerpt of these results, with bars between the fields.
SMILES | Vif TR-FRET | A1 inh | RanGTP-Impb inh | Beta cell apopt | Calb FLC | T cruzi inh | MLL AF4-AF9 inh | rRNA inh HTS | rRNA inh HTS OD600 | rRNA inh HTS RFP
Cc1ccc(S(=O)(=O)CCSc2n[nH]c(=O)n2-c2ccc3c(c2)OCCO3)cc1 | x | -0.2 | 1.1 | -6 | -3 | -6 | -1.7 | -18 | -15 | -1.1
O=C(CNC(=S)N(CCCN1CCOCC1)Cc1cccs1)N1CCCC1 | x | 0.0 | 1.0 | -2 | -5 | -3 | -1.4 | 11 | 10 | 1.2
N#Cc1nc(COc2ccccc2Cl)oc1NCc1ccc(F)cc1 | 6% | x | -3.5 | x | -1 | 17 | -1.0 | -15 | -13 | -3.6
O=c1sc2ccccc2c(N2CCCC2)c1[N+](=O)[O-] | 5% | -1.8 | 0.1 | -8 | -9 | -15 | -1.1 | 19 | 10 | 2.5
CCOC(=O)NC(NCc1ccccc1Cl)(C(F)(F)F)C(F)(F)F | 7% | 0.9 | 2.2 | -3 | 2 | -14 | x | x | x | x

Screening results as filed in PubChem.

These rows are one share of the data; count on the stated rates, not on these rows.
